Mtb H37Rv – Confirmatory growth inhibition assay against Mycobacterium tuberculosis H37Rv, potency (AID 1949); 1.6% of 100,000 active; most inactive calls were filed without a number and no value below 0 was filed; inhibition, % at 10 µg/mL; hits with a dose series show IC50 in µg/mL;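 active = confirmed in a dose series; inconclusive = about 50% or more but not retested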;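 also: bacteria grown 7 days with compound before Alamar blue readout; 0% = untreated bacteria and 100% = reference antibiotic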
* marks the source's active call; other numbers are inactive results; i = inactive; ? = inconclusive. The list is partial. The share of hits here may be higher or lower than overall.

SMILES | Mtb H37Rv
Cc1cc(C(F)F)n2nc(C(=O)Nc3ccc(Br)cc3)nc2n1 | i
Cc1ccc(S(=O)(=O)Nc2ccc(NC(=O)Cc3ccc(Cl)cc3)cc2)cc1 | i
CCC(Sc1nc(C)cc(=O)[nH]1)C(=O)Nc1ccccc1C#N (centres undefined) | i
O=C(CCn1nc(-c2ccccc2)c2ccccc2c1=O)Nc1cccc(Br)c1 | 4.3%
CCc1ccccc1NC(=O)C(=O)NCCCCCO | i
C=CCn1c(SCC(=O)Nc2ccc(C)cc2Br)nnc1-c1cc2ccccc2cc1O | i
COC(=O)c1sc(NC(=S)NC(=O)c2cc(I)ccc2Cl)nc1C | 10.6%
Cn1c(=O)c2c(nc(Oc3ccc(Cl)c(Cl)c3)n2Cc2c(F)cccc2Cl)n(C)c1=O | i
O=S(=O)(c1ccc(NC(=S)NCc2ccco2)cc1)N1CCCC1 | 3.0%
CN1CCN(c2ccc(C(=O)Nc3ccccc3)cc2[N+](=O)[O-])CC1 | i
CCCc1cc(=O)oc2c(C)c(O)c(CN3CCCC3)cc12 | 0.3%
Cc1cccc(NC(=O)CSCc2cccc(Cl)c2)c1C | i
O=C(Nc1nnc(SC/C=C/c2ccccc2)s1)c1ccco1 | i
CCOC(=O)c1c(NC(=O)C(C)(C)C)sc(C)c1-c1ccccc1 | 6.6%
Cc1cc(OCCOCCNCc2ccccc2)ccc1C(C)C | 24.7%
COc1ccc(C(C)NC(=O)c2ccccc2Cl)cc1 (centres undefined) | 4.5%
Cc1cccc(N2CCN(C(=O)CCC(=O)O)CC2)c1C | i
Cc1ccc(OCC(=O)Nc2cccc(Br)c2)cc1C | i
COC(=O)c1ccc(NC(=S)NC(=O)C2CC2)cc1 | ?
O=C(Nc1ccc2ccccc2c1)C1CC(=O)N(c2ccc(Br)cc2)C1 (centres undefined) | i
O=C(CSc1nnc(-c2ccccc2)n1-c1ccccc1)N1CCCC1 | i
COc1ccc(NC(=O)C2OCCc3ccccc32)c(OC)c1 (centres undefined) | 1.8%
CC(C(=O)Nc1sc2c(c1C(=O)NCC1CCCO1)CCCC2)N1C(=O)c2ccccc2C1=O (centres undefined) | i
O=C(c1cc2n(n1)C(C(F)(F)F)CC(c1ccccc1)N2)N1CCCc2ccccc21 (centres undefined) | i
CN(CC(=O)Nc1cc(Cl)cc(Cl)c1)S(=O)(=O)c1ccc(Br)cc1 | i
Continuation:
SMILES | Mtb H37Rv
COc1ccccc1CN1CCN(C(=O)c2cccc3ccccc23)CC1 | 2.9%
COCCNS(=O)(=O)c1cc(C)c(C)cc1OC | 0.5%
CCc1nc(SCc2ccc(Cl)cc2)n[nH]1 | i
N/C(=N\OC(=O)c1ccc2ccccc2c1)c1ccc(Br)cc1 | i
C=CCn1c(SCC(=O)Nc2cc(Cl)ccc2Cl)nc2sc(C)c(C)c2c1=O | i
CC(=O)c1ccc(NS(=O)(=O)c2cc(OCC(N)=O)c(C)cc2Cl)cc1 | i
CCOC(=O)c1c(-c2ccc(Cl)cc2)csc1NC(=O)c1ccccc1Cl | i
CCOc1ccc(-n2c(SCC(=O)C(C)(C)C)nnc2-c2cccnc2)cc1 | i
O=C(COc1ccccc1)Nc1nc(-c2ccc(Cl)c(Cl)c2)cs1 | i
CCOc1cc(NC(=O)c2ccc(Br)cc2)c(OCC)cc1NC(=O)c1ccccc1 | i
Cc1cc(Br)ccc1NC(=O)CC1CCCCC1 | i
CC1(C)CC(=O)C2=C(C1)NC1=C(C(=O)CC(C)(C)C1)C2c1ccc(OCc2ccc(F)cc2)cc1 | 14.0%
O=C(CCN1C(=O)c2ccccc2C1=O)Nc1ccc(Cl)c(C(F)(F)F)c1 | i
COc1cccc2c1OC(c1ccccc1)C([N+](=O)[O-])=C2 (centres undefined) | 0.7µg/mL*
Cn1c(=O)[nH]c(=O)c2c1nc(Sc1ncccn1)n2CCCc1ccccc1 | 2.6%
COC(=O)c1ccc(NC(=O)c2cn(-c3ccccc3)nc2-c2cccc([N+](=O)[O-])c2)cc1 | i
CC(C)C(=O)NC(=S)Nc1ccc(Cl)cc1 | i
S=C(c1ccc2c(c1)OCO2)N1CCN(Cc2ccccc2)CC1 | i
Cc1cccc(C)c1OCC(=O)Nc1cccc(C(=O)O)c1C | i
CC1CCc2c(sc(NC(=O)C3CCCO3)c2C#N)C1 (centres undefined) | i
COC(=O)c1ccccc1NC(=O)C1(c2ccccc2)CCOCC1 | 1.1%
CCOC(=O)C1=C(N)Oc2ccc3ccccc3c2C1c1ccncc1 (centres undefined) | ?
CCN(CC)S(=O)(=O)c1ccc(NC(=O)C2CCCCC2)cc1 | i
COc1cc(C(=O)Nc2ccc(N3CCN(C(=O)C(C)C)CC3)cc2)cc(OC)c1OC | i
CCOc1ccccc1NC(=O)CSc1nnc(NC(=O)c2ccccc2Cl)s1 | i
Carrying on.
SMILES | Mtb H37Rv
COC(=O)c1ccccc1NC(=O)CSc1nc2c(c(C(F)(F)F)n1)CCCC2 | i
COc1cc(OC)c2c(C)c(C)c(=O)oc2c1 | i
CCCCNCCCOc1ccccc1-c1ccccc1 | i
CSc1cccc(NC(=O)CSc2nnc(CCCOc3ccc(Cl)cc3Cl)n2C)c1 | 0.0%
CC1CCCN(Cc2c(O)ccc3cc(-c4nc5ccccc5[nH]4)c(=O)oc23)C1 (centres undefined) | 1.3%
Cc1ccc(C23CC4CC(CC(C(=O)N(C)C)(C4)C2)C3)cc1 | 1.6%
Cc1ccc(S(=O)(=O)N(CC(=O)N2CCOCC2)Cc2ccc(Br)cc2)cc1 | i
CCOC(=O)c1cc2cc([N+](=O)[O-])cc(OC)c2oc1=O | 3.7%
Cc1ccc(C)c(C(=O)Nc2ccc(F)cc2)c1 | i
CCCCNc1ccc(C(N)=O)cc1[N+](=O)[O-] | i
O=C(COc1ccc(Cl)cc1)Nc1cccc(NC(=O)COc2ccc(Cl)cc2)n1 | i
O=C(NCCCn1ccnc1)c1c(F)cccc1F | i
Cc1cc2oc(C(=O)Nc3cc(C(F)(F)F)ccc3Cl)c(C)c2cc1C | i
COc1cc2c(cc1NC(=O)CN(C)S(=O)(=O)c1ccccc1)oc1ccccc12 | i
Cc1onc(-c2ccccc2)c1C(=O)Nc1ccc(F)c(F)c1 | i
CCOC(=O)C(=O)Nc1ccccc1C(N)=O | i
O=C(c1cn(CC(=O)N2CCc3ccccc3C2)c2ccccc12)C1CC1 | i
CCC(C)(C)C1CCc2c(sc(NC(=O)c3ccoc3C)c2C(N)=O)C1 (centres undefined) | i
CN1CCC(NC(=O)Cc2ccc(Br)cc2)CC1 | i
COc1ccc(N2CCN(C(=O)COc3ccc(Br)cc3)CC2)cc1 | i
COc1ccc(C(=O)Nc2c(-c3cccs3)nc3ccccn23)cc1 | 3.0%
O=c1oc2cc(O)ccc2cc1-c1nnc(Nc2ccc(Cl)cc2)s1 | 35.4%
CCCC(CCC)C(=O)Nc1cc(C)ccc1O | i
Cc1cc(=O)oc2cc(OCc3cccc(Br)c3)c(Cl)cc12 | i
Cc1ccc(NC(=O)c2ccc(OC(=O)CCc3ccccc3)cc2)cc1 | i

17 of the compounds above, as a markdown table.
| mol | Mtb H37Rv |
| --- | --- |
| Cc1ccc(C)c(C(=O)Nc2ccc(F)cc2)c1 | i |
| CCCCNc1ccc(C(N)=O)cc1[N+](=O)[O-] | i |
| O=C(COc1ccc(Cl)cc1)Nc1cccc(NC(=O)COc2ccc(Cl)cc2)n1 | i |
| O=C(NCCCn1ccnc1)c1c(F)cccc1F | i |
| Cc1cc2oc(C(=O)Nc3cc(C(F)(F)F)ccc3Cl)c(C)c2cc1C | i |
| COc1cc2c(cc1NC(=O)CN(C)S(=O)(=O)c1ccccc1)oc1ccccc12 | i |
| Cc1onc(-c2ccccc2)c1C(=O)Nc1ccc(F)c(F)c1 | i |
| CCOC(=O)C(=O)Nc1ccccc1C(N)=O | i |
| O=C(c1cn(CC(=O)N2CCc3ccccc3C2)c2ccccc12)C1CC1 | i |
| CCC(C)(C)C1CCc2c(sc(NC(=O)c3ccoc3C)c2C(N)=O)C1 (centres undefined) | i |
| CN1CCC(NC(=O)Cc2ccc(Br)cc2)CC1 | i |
| COc1ccc(N2CCN(C(=O)COc3ccc(Br)cc3)CC2)cc1 | i |
| COc1ccc(C(=O)Nc2c(-c3cccs3)nc3ccccn23)cc1 | 3.0% |
| O=c1oc2cc(O)ccc2cc1-c1nnc(Nc2ccc(Cl)cc2)s1 | 35.4% |
| CCCC(CCC)C(=O)Nc1cc(C)ccc1O | i |
| Cc1cc(=O)oc2cc(OCc3cccc(Br)c3)c(Cl)cc12 | i |
| Cc1ccc(NC(=O)c2ccc(OC(=O)CCc3ccccc3)cc2)cc1 | i |

(continued)
SMILES | Mtb H37Rv
COc1ccc(-c2noc(-c3cc(Cl)ccc3Cl)n2)cc1OC | i
CCOC(=O)Nc1sc2c(c1C(=O)Nc1cccc(OC)c1)CCC2 | i
CC1(C)CC(=O)C2=C(C1)Nc1ccccc1NC2c1ccc(F)c(F)c1 (centres undefined) | i
COc1ccc(CC(=O)Nc2ccc(C(=O)O)cc2NC(=O)Cc2ccc(OC)cc2)cc1 | i
CC(C)(C)CC(=O)NC1CCCCCCC1 | i
O=C(Nc1ccccc1-c1nc2ccccc2[nH]1)c1ccccc1Br | 5.0%
CCn1c(CNC(=O)Cc2ccc(OC)cc2)nnc1SCC(=O)Nc1ccc(Br)c(C)c1 | i
CCOC(=O)C12C(=O)Oc3ccc(Br)cc3C1C2(C)C(=O)c1ccc(C)cc1 (centres undefined) | i
CNC(=O)CN(c1ccc(C)cc1)S(=O)(=O)c1ccc(OC)c(Br)c1 | i
COc1ccc(NC(=O)NCc2ccc(C(=O)O)cc2)c(OC)c1 | i
COc1ccccc1C(=O)CC1(O)C(=O)N(Cc2ccccc2C)c2ccccc21 (centres undefined) | 3.8%
CCOC(=O)c1ccc(NC(=S)NNC(=O)c2ccoc2C)cc1 | i
Cc1ccc(OCC(=O)Nc2ccc(CN3CCOCC3)cc2)c(C)c1 | i
C=CCN1C(=O)/C(=C/c2ccc(O)c(OCC)c2)SC1=S | i
COc1ccc(NC(=O)c2cc3cc(Br)cc(OC)c3oc2=O)cc1OC | i
COc1cccc(OC)c1OCCOc1cccc(Cl)c1 | 3.0%
CC(=O)c1ccc(NC(=O)NCCc2cccc(Cl)c2)cc1 | i
Cc1cc(C)cc(N(CC(=O)Nc2c(C)cc(C)cc2C)S(C)(=O)=O)c1 | i
COc1ccccc1C(CC(=O)Nc1ccc(C)c(C)c1)c1ccc(OC(C)C)cc1 (centres undefined) | i
COc1cccc(C2C3=C(CC(C)(C)CC3=O)Nc3[nH]n(-c4ccccc4)c(=O)c32)c1 (centres undefined) | i
Cc1ccc(OCC(O)CN2CCN(Cc3ccc4c(c3)OCO4)CC2)cc1C (centres undefined) | i
Cc1nn(Cc2ccccc2Cl)c(C)c1NC(=O)Nc1ccc(F)c(Cl)c1 | i
COC(=O)c1ccc(Oc2nc3c(c(=O)n(C)c(=O)n3C)n2Cc2ccccc2)cc1 | i
COc1ccc(C2(C(=O)Nc3ccc(C(=O)Nc4ccc(C)cc4OC)cc3)CCOCC2)cc1 | i
COC(=O)c1c(NC(C)=O)sc(C)c1-c1ccccc1 | i
Further entries.
SMILES | Mtb H37Rv
Cc1ccc(N(CC(=O)Nc2ccccc2C(N)=O)S(C)(=O)=O)cc1C | 1.0%
CCOC(=O)c1c(-c2ccc(OC)cc2)csc1NC(=O)c1cccc(Cl)c1 | i
Cc1ccccc1S(=O)(=O)/N=C(\N)c1ccccc1 | i
COc1ccc(C(=O)Nc2ccccc2C(C)(C)C)cc1 | 8.4%
CCOc1ccc(-c2nn3c(Cc4ccccc4)nnc3s2)cc1 | i
Cn1c(CSc2nc3ncnc(N)c3[nH]2)nc2ccccc21 | 1.7%
O=C(Cn1nc(C(F)(F)F)c2c1CCCCC2)Nc1ccc(C(=O)N2CCCCC2)cc1 | i
CC(C)CCNC(=O)C(=O)Nc1ccccc1Cl | 0.84µg/mL*
Cc1ccc(C(=O)Nc2sc3c(c2C(=O)O)CCCC3)o1 | i
Cc1ccc(CC2CC(=O)N(c3ccc4ccccc4n3)C2=O)cc1 (centres undefined) | i
CCC(C)c1ccccc1NC(=O)COc1ccc([N+](=O)[O-])cc1 (centres undefined) | i
CCc1sc(NC(=O)c2c(-c3ccccc3)noc2C)nc1-c1ccccc1 | i
CCCCOC(=O)Nc1sc2c(c1C(=O)OC)C(C(=O)OC)CC2 (centres undefined) | 38.0%
COc1ccc(-c2c(C)oc3cc(OC(C)=O)ccc3c2=O)cc1OC | i
CCOC(=O)c1ccc(NC(=O)Cn2cc(Br)c([N+](=O)[O-])n2)cc1 | i
COc1ccc(C(C)=O)cc1CSc1nc(C)cc(C)n1 | i
CCOc1ccccc1CN1CCC(N2CCCC2)CC1 | i
COc1cccc(CNCCO)c1OCc1ccccc1 | i
O=C(Nc1nc2c(s1)CCc1ccccc1-2)c1ccc(Br)cc1 | 0.1%
COc1ccc(C(=O)Nc2cccc(C)c2C)cc1I | i
O=C(CC1OCCN(Cc2ccccc2)C1=O)Nc1cccc(Cl)c1 (centres undefined) | i
Cc1cc(NS(=O)(=O)c2ccc(NC(=O)c3ccc(C)o3)cc2)no1 | 1.4%
COc1ccc(S(=O)(=O)N2CCC(C(=O)NCCc3ccccc3)CC2)cc1C | i
Nc1nc(SCc2c(F)cccc2Cl)n[nH]1 | i
CCOC(=O)c1c(NC(C)=O)sc2c1CCC(Sc1ccccc1)C2=O (centres undefined) | i

Pulled by compound from the list above:
SMILES | Mtb H37Rv
CCOc1ccccc1CN1CCC(N2CCCC2)CC1 | i
CCOC(=O)c1ccc(NC(=O)Cn2cc(Br)c([N+](=O)[O-])n2)cc1 | i

Next part
SMILES | Mtb H37Rv
O=C(C1=C(O)C(=O)N(CCCn2ccnc2)C1c1cccs1)c1cc2ccccc2o1 (centres undefined) | i
Cc1ccc(-c2nc3ccccc3s2)cc1NC(=O)COc1cccc(C)c1C | i
O=C(Nc1ccc2c(c1)OCCO2)C1CC1 | i
Cc1ccc(CC(=O)Nc2ccccc2C(N)=O)cc1 | 1.2%
COc1ccc(C(=O)Nc2nnc(Cc3ccc(Cl)cc3)s2)c(OC)c1 | i
COc1ccc(CCc2nc(C)cc(CN(C)C)c2O)cc1OC | 0.6%
COc1ccc(C(=O)CSc2ccc(C)cc2)cc1 | i
Cc1cc(N2CCOCC2)nc(SCCCCSc2nc(C)cc(N3CCOCC3)n2)n1 | i
CC(C)CNC(=O)Cc1cccc2ccccc12 | i
Nc1c([N+](=O)[O-])cc(F)c(N2CCSCC2)c1Br | i
